VDR inhibitor: blocks the human vitamin D receptor | P11473 | VDR-SRC2-3 peptide fluorescence polarization, 2 h | 400,000 tested, 0.93% active | AID 504847 | Potency, µM, for inactives: max response, negative = inhibition, usual class: inhibitors; active means well fitted inhibition curve with a large enough effect; inconclusive means small, poorly fitted or top-dose-only effect, or another doubt; inactive means no such curve, though single readings can be large or run the other way; further: series mostly up to about 120 µM
Target sequence (P11473 whole entry, looked up): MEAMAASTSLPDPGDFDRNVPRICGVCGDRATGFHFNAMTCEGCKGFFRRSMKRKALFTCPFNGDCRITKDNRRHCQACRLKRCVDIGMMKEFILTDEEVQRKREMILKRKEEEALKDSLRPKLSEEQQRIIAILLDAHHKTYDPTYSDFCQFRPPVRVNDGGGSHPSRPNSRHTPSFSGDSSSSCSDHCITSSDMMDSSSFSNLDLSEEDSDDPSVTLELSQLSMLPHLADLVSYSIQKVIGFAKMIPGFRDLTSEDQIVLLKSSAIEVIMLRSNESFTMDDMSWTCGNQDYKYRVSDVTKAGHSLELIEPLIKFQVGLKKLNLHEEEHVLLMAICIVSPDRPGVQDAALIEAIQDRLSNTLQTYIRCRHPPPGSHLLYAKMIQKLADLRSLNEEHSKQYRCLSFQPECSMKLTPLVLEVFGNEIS
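Signal is fluorescence polarization, reporting how far test compounds block the interaction of VDR with the SRC2-3 coregulator peptide after a 2 h room-temperature incubation.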
* hit, by the source's call; ? = inconclusive; & = joins results of further samples; [ ] = dose if it differs, or a comment. On the % scale 0 is the no-effect control and ±100 the full control effect; potency means the concentration at half of the fitted maximal effect. Only part of the results is shown; the hit share may differ from the screen's.

VDR inhibitor | canonical_smiles
-6% | CC(C)C[C@@H]1CN=C(N)N1C[C@@H]1CCCN1C[C@@H](C(C)C)N1C[C@@H](Cc2ccccc2)N(CCc2ccc(Cl)c(Cl)c2)C1=N
8% | CCN(CC)C(=O)N1CCN(S(=O)(=O)c2ccccc2)CC1
12% | COc1ccc(-c2cn3c(n2)sc2cc(C(=O)Nc4ccc(C)cc4C)ccc23)cc1
0% | CCC(C)(C)NC(=O)C(c1ccccn1)N(C(=O)c1csnn1)c1ccccc1 (centres undefined)
-12% | Cc1ccc(-n2nc3c(N4CCC(C(=O)NCc5cccc(F)c5)CC4)nnc(C)c3c2C)cc1
1% | O=C(NNC(=O)c1cc2cc(OC(F)(F)F)ccc2[nH]1)c1ccc(Cl)cc1
1% | COCCn1cnc2c1c(=O)n(Cc1ccc(Br)cc1)c(=O)n2Cc1ccccc1
-6% | CN(C(=O)c1ccc(NC(=O)Cc2cccc([N+](=O)[O-])c2)cc1)C1CCCC1
? | Cc1csc(NC(=O)CSc2nc3[nH]ncc3c(=O)[nH]2)n1
? | NC(CSC1(c2cccc3ccccc23)c2ccccc2-c2ccccc21)C(=O)O (centres undefined)
1% | Cc1ccccc1CNC(=O)Cn1ccc2cc(S(=O)(=O)N3CCCCCC3)ccc21
-4% | S=C(Cc1ccc(-c2ccccc2)cc1)N1CCOCC1
-6% | Cc1ccccc1N(C(=O)Cc1ccsc1)C(C(=O)NC1CCCCC1)c1ccc(F)cc1 (centres undefined)
32µM* | O=C(CCCN1C(=O)S/C(=C/C=C/c2ccccc2)C1=O)Nc1ccc(C(=O)O)cc1
17% | O=CNNC(=O)c1cccc([N+](=O)[O-])c1
1% | CC(=O)Nc1ccc(-c2nnn(CC(=O)c3ccccc3)n2)cc1Cl
-15% | Oc1cc(CNC2CCCCC2)c(O)cc1CNC1CCCCC1
2% | COc1cccc(-n2c(SCC(=O)N3CCOCC3)nnc2-c2c[nH]c3ccccc23)c1
-24% | CCCCCC(=O)N(Cc1ccccc1)c1c(N)n(CCOC)c(=O)[nH]c1=O
6% | CCc1cccc(-n2c(=O)c3cccnc3n2CC(=O)NCc2ccccc2)c1

The results go on:
VDR inhibitor | canonical_smiles
-12% | O=C(CCn1cccn1)N1CCCC(N2CCN(c3cccc(C(F)(F)F)c3)CC2)C1 (centres undefined)
16% | O=C1NC(=S)NC1=Cc1ccc(O)cc1
-14% | O=[N+]([O-])c1cc(CSC2=NCCN2)ccc1O
-1% | COc1cc(OC)c(OC)cc1C=NCC1(c2ccccc2)CCCC1
17% | COc1ccc(C(=O)NNC(=O)c2ccc(S(=O)(=O)N3CCOCC3)cc2)cc1
? | COc1cccc(-c2cncnc2NCCN2CCOCC2)c1
9% | C(=N\Nc1nncc2ccccc12)/c1ccccn1
2% | Cc1noc(C)c1S(=O)(=O)Nc1ccccc1N1CCOCC1
-3% | Cc1ccc(NC(=O)CCC(=O)NNC(=O)C(c2ccccc2)c2ccccc2)c(C)c1
-8% | O=C(CNC(=O)c1ccccc1)OC(C(=O)c1ccccc1)c1ccccc1 (centres undefined)
78%&8%[activator] | O=C(NCc1ccccc1Cl)C1CCN(c2ncnc3c2nc2n3CCCCC2)CC1
-18% | Cc1nc2nc(SCC(=O)O)nn2c(C)c1Cc1ccccc1Cl
15% | COCCCNC(=O)C1CCCN(C(=O)c2cnn(-c3ccc(F)cc3)c2-n2cccc2)C1 (centres undefined)
23% | COc1ccc(OC(C)C(=O)Nc2cccnc2)cc1 (centres undefined)
-5% | COc1ccc(Cc2nc3ccc(C(=O)NCCc4ccccn4)cc3o2)cc1OC
-22% | Cc1nc2ccc(NC(=O)c3ccc(Cl)s3)cc2s1
-3% | CC1CCN(C(=O)CN2C(=O)C(C)(C)Oc3ccc(C(=O)NC4CCCC4)cc32)CC1
16% | Cc1cccc(C(=O)N(CCc2ccccc2)Cc2ccccc2)c1[N+](=O)[O-]
1% | CCOc1ccc(CCNC(=O)CCCc2nnc3n(CC)c(=O)c4sccc4n23)cc1OCC
-13% | Cc1ccc(NC(=O)C(C)N2C(=O)c3ccccc3C2=O)nc1 (centres undefined)

(further entries)
VDR inhibitor | canonical_smiles
-16% | CCCN(C(=O)COC(=O)CNC(=O)c1ccc2ccccc2c1)c1c(N)n(Cc2ccccc2)c(=O)[nH]c1=O
1% | CCOC(=O)C1=C(COC(=O)CNS(=O)(=O)c2c(F)cc(F)cc2Br)NC(=O)NC1C (centres undefined)
-5% | CCCN(CCC)C(=O)C(Cc1ccccc1)NS(=O)(=O)c1ccc2c(c1)c(=O)n(C)c(=O)n2C (centres undefined)
-22% | CCOc1ccc(/C=C2\SC(N3CCc4ccccc4C3)=NC2=O)cc1
6% | O=C(NCCc1ccc(Cl)cc1)C(=O)NCC(c1ccco1)S(=O)(=O)c1ccc(Cl)cc1 (centres undefined)
-2% | Cc1c(Cl)cccc1Nc1sc(C(=O)c2ccccc2)c(N)c1S(=O)(=O)c1ccccc1
? | O=C1C(NS(=O)(=O)c2ccccc2)=C(N2CCN(c3ccc(F)cc3)CC2)C(=O)c2ccccc21
? | NC(=O)CC[C@@H]1NC(=O)[C@H](CO)NC(=O)c2cc([N+](=O)[O-])cc(I)c2NCC[C@@H](C(N)=O)NC1=O
-7% | O=C(COc1ccccc1F)NCc1nc2ccccc2[nH]1
-2% | CC(C)c1ccc(C(O)P(=O)(OC2CCCCC2)OC2CCCCC2)cc1 (centres undefined)
21% | CCCCn1nc(C(=O)NC2=NCCS2)c2ccccc2c1=O
-25% | O=S(=O)(c1ccc(Cl)cc1)n1c(Cc2ccccc2)nc2ccccc21
-14% | Cc1cccc(NC(=S)NCCC(C)C)c1
-13% | N#Cc1cn(-c2ccccc2)nc1-c1ccc2c(c1)OCCO2
-13% | COC(=O)/C(=C\C(=O)c1ccccc1)Nc1cccc(C(F)(F)F)c1
11% | CSCC[C@H](NC(=O)[C@H](Cc1ccccc1)n1c(=O)[nH]c2ccccc2c1=O)C(=O)N1CCC[C@@H]1C(=O)O
-22% | CNc1c([N+](=O)[O-])cnn1-c1ccc(Cl)cc1Cl
0% | COC(=O)c1cccc(NC(=O)CCCOc2cccc(C)c2)c1
-2% | CSc1ccccc1NC(=O)Nc1ccc(F)c(Cl)c1
-17% | COCC(=O)N1CCC(Oc2ccc(C(=O)N(C)C3CCCCC3)cc2)CC1

Filtered by structure, the entries above containing two or more sulfur atoms.
VDR inhibitor | canonical_smiles
? | Cc1csc(NC(=O)CSc2nc3[nH]ncc3c(=O)[nH]2)n1
-22% | Cc1nc2ccc(NC(=O)c3ccc(Cl)s3)cc2s1
-2% | Cc1c(Cl)cccc1Nc1sc(C(=O)c2ccccc2)c(N)c1S(=O)(=O)c1ccccc1

Next section:
VDR inhibitor | canonical_smiles
1% | COc1cccc2c1OCC(CN1CCN(Cc3ccccc3)C(CCO)C1)=C2 (centres undefined)
-2% | CCc1ccc(N2CC(C(=O)Nc3cccc(S(=O)(=O)N4CCCC4)c3)CC2=O)cc1 (centres undefined)
3% | C=CCn1c(SCC(=O)Nc2cccc(C(=O)OC)c2)nnc1C(C)NC(=O)c1cccs1 (centres undefined)
4% | Cc1ccc(C(=O)Nc2cc([N+](=O)[O-])ccc2C)cc1
-1% | O=c1c(-c2cccc(Cl)c2)nc2cncnc2n1-c1ccccc1
2% | CN1NC(=O)CC1c1ccccc1 (centres undefined)
-7% | CCC1C(=O)N(C)CCc2ccccc21 (centres undefined)
-6% | CCCc1nc2oc(C(=O)OCC)c(N)c2c2c1COC(C)(C)C2
-24% | C=CCN1C=C2C(=O)C(C)(OC(=O)c3ccc(OC)cc3)C(=O)C(c3ccco3)=C2C=C1CCCC (centres undefined)
22% | Cc1nnc(NC(=O)CSc2ncc(-c3ccccc3)[nH]2)s1
-11% | O=C(CSc1nnc(-c2ccc(O)cc2)o1)Nc1ccccc1Br
16% | Cc1ccc(S(=O)(=O)N2CCC(C(=O)N3Cc4ccccc4C3)CC2)cc1
-8% | CN(C)CCCN(C(=O)c1cc(-c2cccs2)nc2ccccc12)c1nc2c(F)cccc2s1
-9% | CCc1ccc(C(=O)COC(=O)c2n[nH]c3ccccc23)cc1
-3% | COc1cccc(NC(=O)CN(C)C(=O)c2csc3c2CCCC3)c1
-14% | CC(C)=CC(=O)O[C@@H]1Cc2c(ccc3ccc(=O)oc23)OC1(C)C
11% | O=C(c1ccc([N+](=O)[O-])cc1)N1CCN(c2ccc(Nc3ccccc3)nn2)CC1
5% | CC1CN(C(=O)CCC(=O)NCc2ccccc2)c2ccccc2S1 (centres undefined)
2% | CC(C(=O)NCc1cccnc1)N1C(=O)c2ccccc2C1=O (centres undefined)
2% | CC(C)CN(C(=O)c1ccc(S(=O)(=O)N2CCCCC2)cc1)C1CCS(=O)(=O)C1 (centres undefined)

Further results follow.
VDR inhibitor | canonical_smiles
2% | Cc1ccc(CCNc2ccc3ccccc3c2)cn1
-17% | CCOc1ccc(N2CC(C(=O)Nc3ncccc3C)CC2=O)cc1 (centres undefined)
-11% | O=S(=O)(c1cccc(-c2nc3ccccc3s2)c1)N1CCOCC1
-5% | O=C(NC(=S)NCCc1ccccc1)c1ccccc1
-4% | COCc1cc(C)n(CC(=O)Nc2ccc3c(c2)OCO3)c(=O)c1C#N
-15% | COc1ccc([C@H]2CC(=O)C=C(c3ccc(Cl)c(Cl)c3)C2)cc1
-11% | Cc1ccc2[nH]c(=O)c(CN(Cc3cccnc3)Cc3nnnn3CC3CCCO3)cc2c1 (centres undefined)
-2% | CCOC(=O)CCc1c(C)c2cc3c(c(C)c2oc1=O)OCN(CCc1ccccc1OC)C3
8% | COc1ccc(-c2ccc(-c3nnc(-c4cc(OC)ccc4OC)o3)cc2)cc1
14% | O=C(Nc1ncccc1O)c1ccc(S(=O)(=O)Nc2ccccc2)cc1
-13% | CCc1ccc(NC(=O)Cc2c(C(=O)O)n(C)c3ccccc23)cc1
-13% | CC(C)N(C(=O)CSc1nnc(NC(=O)C2CCC2)s1)C(C)C
6% | COc1ccc(NC(=O)CN(C)C(=O)c2cc(-c3ccc(OC)cc3)nc3ccccc23)cc1
9% | CCCCCCCCCCNC(=O)CCn1[nH]c(=O)c2ccccc2c1=O
23% | CCN(CC)CCCNc1nc2ccccc2c2nc(-c3ccncc3)nn12
-9% | N/C(=N\OC(=O)CCCOc1ccccc1)c1cccc(Br)c1
-29% | CC(=NNC(=S)N1CCC1)c1ccccn1
20% | CC1(C)C(=O)CC[C@]2(C)C3C(=O)C=C4[C@H]5C[C@@](C)(C(=O)O)CC[C@]5(C)CC[C@]4(C)[C@]3(C)CC[C@@H]12 (some centres undefined)
11% | CC(C)Cc1nnc(NC(=O)C2=COCCO2)s1
-2% | Cc1c(NC(=O)COC(=O)c2cc3c4ccccc4n(C)c3s2)c(=O)n(-c2ccccc2)n1C

Arranged by value in VDR inhibitor (falling): some entries from above
Structure	VDR inhibitor
COc1ccc(-c2ccc(-c3nnc(-c4cc(OC)ccc4OC)o3)cc2)cc1	8%
Cc1c(NC(=O)COC(=O)c2cc3c4ccccc4n(C)c3s2)c(=O)n(-c2ccccc2)n1C	-2%
N/C(=N\OC(=O)CCCOc1ccccc1)c1cccc(Br)c1	-9%

Back to the main list; the three compounds before the break are reprinted first.
VDR inhibitor | canonical_smiles
20% | CC1(C)C(=O)CC[C@]2(C)C3C(=O)C=C4[C@H]5C[C@@](C)(C(=O)O)CC[C@]5(C)CC[C@]4(C)[C@]3(C)CC[C@@H]12 (some centres undefined)
11% | CC(C)Cc1nnc(NC(=O)C2=COCCO2)s1
-2% | Cc1c(NC(=O)COC(=O)c2cc3c4ccccc4n(C)c3s2)c(=O)n(-c2ccccc2)n1C
-14% | C[C@@H]1C(=O)O[C@@H]2[C@H](O)C34[C@H]5C[C@@H](C(C)(C)C)C36[C@H](OC(=O)[C@@H]6O)OC4(C(=O)O5)[C@@]12O (some centres undefined)
-2% | CCN(CC(=O)NCc1cccs1)CC(=O)Nc1ccccc1C
-16% | CC(C)(C)OC(=O)N1CCC(c2c(C(=O)NCC3CCN(C4CCCC4)C3)cnn2-c2ccc(F)cc2)CC1 (centres undefined)
9% | Cc1cc(-n2c(C)cc(C(=O)CN3C(=O)NC4(CCCC4)C3=O)c2C)no1
3% | O=C(O)C1CCCCC1C(=O)NC1C2CC3CC(C2)CC1C3 (centres undefined)
-8% | C[C@@H]1COC(=O)[C@H](Cc2ccc(F)cc2)CC/C=C\C[C@@H](CC(=O)NCCO)C(=O)N1
2% | Cc1cccc(CS(=O)(=O)Cc2ccc(C(=O)NCCCN3CCCC3)o2)c1
-9% | O=C(/C(=C(\[O-])c1ccccc1)[n+]1ccc2ccccc2c1)c1ccc(Cl)cc1
9% | O=C(Nc1ccccc1-c1nc2ccccc2s1)C1=COCCO1
-2% | CC(C)c1ccccc1NC(=O)COC(=O)c1c2c(nc3ccccc13)CCN(Cc1ccccc1)C2
9% | CC(C)(C)c1ccc(/C=C/C(=O)NC2CCS(=O)(=O)C2)cc1 (centres undefined)
-13% | O=C(NCCCn1ccnc1)c1cc(S(=O)(=O)N2CCOCC2)c(Cl)cc1Cl
6% | Cc1cccc(NC(=O)Cn2c(=O)c3cccn3c3ccccc32)c1C
-1% | N#Cc1ccccc1NC(=O)c1ccc2c(Cl)c3c(nc2c1)CCCC3
-24% | CCCCc1nc2ccccc2c(=O)n1NC(=O)c1c(O)c2cccc3c2n(c1=O)CC3
-5% | CCC(=O)N1CCc2cc(Br)cc(S(=O)(=O)NCC3CCCN3CC)c21 (centres undefined)
8% | O=C(N/N=C/c1ccccc1)c1n[nH]c2c1CCCC2
-5% | CC(=NNC(=O)CSc1nc2ccccc2o1)c1ccco1
-9% | COc1ccc(CCNc2nc(C)nc3c2nnn3Cc2ccccc2)cc1

High-throughput results deposited in PubChem by National Center for Advancing Translational Sciences (NCATS).
